Screens from PubChem BioAssay.
LANA-H2A inh – blockers of LANA interaction with H2A/H2B – biochemical, FP readout, HTS, primary screen; Protein LANA1 (Human herpesvirus 8 type P (isolate GK18)), Q9QR71; cell-free LANA-H2A/H2B peptide, fluorescence polarization; inhibition, % (concentration not given with the values); 0.6% of 320,000 active; AID 2629, 2010; in the data active means inhibition mostly above about 10%, no sharp cut-off; inactive means mostly below about 6.7%;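 further: stock transfer was 7.5 nL into about 10 µL; 0% = median of vehicle wells and 100% = median of positive control wells; one replicate is shown; the record names a cut of 25% in any replicate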
ALR inh – inhibitors of human ALR sulfhydryl oxidase, primary screen, biochemical, H2O2 detection, HRP-luminol luminescence, single point; inhibition, % (test concentration not listed); purified ALR, DTT oxidation; FAD-linked sulfhydryl oxidase ALR (Homo sapiens), P55789; 3.8% of 290,000 active; AID 485317, 2010;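 active means mean and each replicate at 75% or more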;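 further: stock transfer was 7.5 nL into about 7.5 µL; 0% = neutral wells and 100% = wells with inactivated enzyme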
Target sequence (P55789 whole entry, looked up): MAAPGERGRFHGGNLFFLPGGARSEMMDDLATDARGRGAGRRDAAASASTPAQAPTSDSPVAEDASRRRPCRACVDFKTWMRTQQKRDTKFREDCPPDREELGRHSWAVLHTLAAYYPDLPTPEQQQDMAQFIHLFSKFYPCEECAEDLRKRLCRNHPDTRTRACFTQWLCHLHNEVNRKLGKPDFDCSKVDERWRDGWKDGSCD
FGF22 binding – binders of human FGF22 protein, primary screen, FGF22 synaptogenesis inhibitor project, biophysical, thermal shift, single point | recombinant FGF22 thermal shift, SYPRO orange fluorescence; percent of sucrose octasulfate shift, DMSO zero | calls only at 9.99 µM | 1.5% of 340,000 active;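 active means melting point raised past a set limit in the mean and every replicate; three in four hits are not shown here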
Target sequence (Q9HCT0 whole entry, looked up): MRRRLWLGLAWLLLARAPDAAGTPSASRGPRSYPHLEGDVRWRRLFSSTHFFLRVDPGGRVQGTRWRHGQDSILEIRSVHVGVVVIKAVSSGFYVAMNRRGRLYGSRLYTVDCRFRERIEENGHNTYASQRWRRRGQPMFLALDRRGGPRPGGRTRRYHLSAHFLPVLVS
HNF4A DNA FP – change in binding of human HNF4A to DNA, primary screen, biochemical, fluorescence polarization, FITC-DNA; Hepatocyte nuclear factor 4-alpha (Homo sapiens), P41235; 1 h; activity change, % at 10 µM; 0.3% of 360,000 active; AID 1224865, 2016; in the data active means activity change above about 30%, passing the limit was not always enough;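 further: controls were the assay level and a saturating level of protein; the project sought stronger binding though the title names inhibitors; some compounds called inactive have numbers as strong as hits; positive values seem to mean higher polarization but the record does not say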
Target sequence (P41235 whole entry, looked up): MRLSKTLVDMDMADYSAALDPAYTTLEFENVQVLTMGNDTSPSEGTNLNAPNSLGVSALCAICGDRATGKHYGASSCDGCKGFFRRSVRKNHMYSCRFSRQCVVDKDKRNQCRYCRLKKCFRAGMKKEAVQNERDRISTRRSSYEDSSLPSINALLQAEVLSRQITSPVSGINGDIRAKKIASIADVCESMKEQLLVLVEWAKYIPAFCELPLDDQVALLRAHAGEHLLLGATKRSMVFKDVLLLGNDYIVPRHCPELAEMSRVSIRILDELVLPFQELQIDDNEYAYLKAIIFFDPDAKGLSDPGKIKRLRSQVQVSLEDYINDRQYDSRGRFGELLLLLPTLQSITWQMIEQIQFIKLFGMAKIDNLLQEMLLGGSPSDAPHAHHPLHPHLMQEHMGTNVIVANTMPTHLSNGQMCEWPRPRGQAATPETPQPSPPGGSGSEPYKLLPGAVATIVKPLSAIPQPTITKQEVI
UCH37 inh – inhibitors of human UCH37 deubiquitinase, primary screen, biochemical, Ub-AMC cleavage, fluorescence. Ubiquitin carboxyl-terminal hydrolase isozyme L5 (Homo sapiens), Q9Y5K5. purified proteasome/UCH37. inhibition, % (test concentration not listed). 0.33% of 330,000 active. AID 588478, 2011;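 active means mean of two replicates above 20%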;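 further: 0% = compound-free wells with enzyme and 100% = wells lacking proteasome; stock transfer was 100 nL into about 20 µL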
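Material: Human UCH37 enzyme supplied as purified proteasome complex | Schedule: 30 min preincubation with enzyme, 25 min cleavage at room temperature | Detection: AMC fluorescence 355/460 nm | Measure: % inhibition of Ub-AMC cleavage fluorescence | Controls: Wells without proteasome as full block, compound-free enzyme plus substrate as uninhibited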
Beta2AR agonist – beta2AR agonists driving receptor internalization, primary screen, cell-based, FAP fluorogen, flow cytometry; Beta-2 adrenergic receptor (Homo sapiens), P07550; response, % (test concentration not listed); 0.43% of 340,000 active; AID 504454, 2011; Am2.2-beta2AR cells; reference of the scale not given here;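 active means response above a set limit, near 3 SD of response in nonfluorescent compounds, cut at about 42% in these data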;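 further: stock transfer was 100 nL into about 11 µL; a reference agonist was the positive control; negative values mostly stem from fluorescent compounds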
Ecoli growth – E. coli growth inhibition, primary screen, OD600; AID 1053175, 2014; Escherichia coli growth, 23 h; hits give low values; OD600 absorbance (no concentration beside the values); 0.21% of 330,000 active;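 active means OD600 absorbance below the run mean of sample wells minus 3.6 SD, in any replicate, cut at about 0.56 in these data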;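 further: stock transfer was 300 nL into about 60 µL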
The depositor's hits bear a star; i = inactive; · = not tested or not shown. A portion of the library. The share of hits here may be higher or lower than overall.

SMILES | LANA-H2A inh | ALR inh | FGF22 binding | HNF4A DNA FP | UCH37 inh | Beta2AR agonist | Ecoli growth
Cc1sc(NC(=O)c2ccc(F)cc2)c(CN2CCCCCC2)c1C | -2.9 | -3 | i | 4.7 | -11 | 11 | 0.66
COc1ccccc1NC(=S)N1CCCCCC1 | 0.5 | -11 | i | 2.4 | 4.0 | -4 | 0.69
Nc1nonc1-c1nc2ccccc2n1CCC(=O)O | -6.6 | -4 | · | -1.8 | -0.6 | 7 | 0.69
COc1ccc(NC(=O)CN2C(=O)NC(C)(c3ccc(C)cc3)C2=O)cn1 (centres undefined) | 1.3 | 0 | i | 1.3 | 1.2 | 1 | 0.67
CCN(Cc1ccccc1)C(=O)COC(=O)c1cc(Cl)nc(Cl)c1 | -0.1 | -8 | i | 3.9 | 0.3 | -2 | 0.7
CC1(C)CC(=O)C2=C(C1)NC(=O)CC2c1ccc(N(CCC#N)CCC#N)cc1 (centres undefined) | 6.8 | -8 | i | -1.9 | 3.2 | 0 | 0.66
CC(C)(C)c1ccc(S(=O)(=O)N2CCCC2C(=O)N2CCOCC2)cc1 (centres undefined) | -9.6 | -7 | · | -1.6 | -0.9 | 9 | 0.72
CSCCC(NS(=O)(=O)c1ccc(C)cc1)C(=O)NCC(C)(C)N1CCOCC1 (centres undefined) | -4.0 | -8 | i | -0.3 | 1.8 | -6 | 0.69
CC(C)CC(=O)NC(NC(=O)CC(C)C)c1cccc([N+](=O)[O-])c1 | -11 | -13 | i | 1.2 | · | 2 | ·
Nc1nc2nonc2nc1N1CCCCC1 | 0.3 | -5 | · | -3.1 | 5.8 | 1 | 0.75
COc1ccc([C@H]2CC(=O)C=C(c3ccc(Cl)c(C(F)(F)F)c3)C2)cc1 | -3.7 | -5 | i | -3.2 | 5.4 | 6 | ·
O=C(Nc1ccnn1C1CCN(CCCC2CCCC2)CC1)c1ccccc1 | -6.0 | -8 | i | 0.8 | 3.0 | 6 | 0.66
O=C1c2ccccc2C(=O)N1CCC(=O)N1CCCc2ccccc21 | 4.2 | -18 | · | -2.9 | 4.7 | -23 | 0.68
CCc1cccc(NC(=O)CCS(=O)(=O)c2cc3c(cc2C)NC(=O)CO3)c1 | 4.4 | -3 | i | 1.4 | 0.9 | 0 | 0.71
O=C(COC(=O)c1c[nH]c2ccccc12)Nc1ccc([N+](=O)[O-])cc1 | 4.2 | · | i | 1.8 | 5.4 | 14 | 0.67
Cn1cccc1/C=N/NC(=O)CNc1ccc2ccccc2c1 | -6.2 | · | i | 1.3 | · | -13 | ·
CC(=O)c1ccc(OCc2cc(C(=O)NC(C)c3cnn(C)c3)no2)cc1 (centres undefined) | 0.3 | -1 | i | 2.7 | 2.2 | -10 | 0.68
CCOc1ccc(NC(=O)CN(C)C(=O)c2ccc(C)c(S(=O)(=O)N3CCCCC3)c2)cc1OCC | 0.2 | -15 | i | -2.0 | 1.1 | -11 | 0.7
CCCCNC(=S)N(CCCO)Cc1cc2cc3c(cc2[nH]c1=O)OCCO3 | 0.9 | -5 | i | -0.2 | -80 | -5 | 0.67
CC(C)C(OC(=O)c1cc2c(s1)CCCCC2)C(=O)NC(N)=O (centres undefined) | -2.6 | · | · | 0.5 | 1.2 | -15 | 0.73
O=C1C=C(c2ccc3[nH]ccc3c2)C[C@@H](c2ccc(F)cc2)C1 | -0.6 | 2 | i | 0.5 | 3.8 | 12 | ·
O=C(O)Cc1c[nH]c2cccc(O)c12 | 3.9 | 16 | i | -9.0 | 5.0 | -3 | 0.76
COc1ccc2oc(C(=O)OC(C)C(=O)N3C(C)CCCC3C)c(C)c2c1 (centres undefined) | 3.9 | -6 | i | 2.2 | -51 | -4 | 0.66
Cc1c(Cl)cccc1N=C1SCCN1C(=O)CN1C(=O)NC2(CCCC2)C1=O | 0.9 | -11 | i | 0.8 | 6.3 | 8 | 0.72
CCC(C)(C)n1nnnc1C(C(C)C)N(CCCO)Cc1cc2cc(C)ccc2[nH]c1=O (centres undefined) | 1.8 | 3 | · | 0.5 | 1.2 | 1 | 0.7
Remaining list, next part.
SMILES | LANA-H2A inh | ALR inh | FGF22 binding | HNF4A DNA FP | UCH37 inh | Beta2AR agonist | Ecoli growth
Cc1csc(NC(=O)c2cccc(Cn3nc(C)c(Br)c3C)c2)n1 | -4.7 | -10 | · | -4.1 | 0.7 | 1 | 0.68
Cc1scc(C(=O)NNC(=S)NCC2CCCO2)c1-c1ccccc1 (centres undefined) | -4.0 | 45 | i | -1.0 | 5.7 | 1 | 0.72
COc1cccc2cc(C(=O)NCc3ccccc3Cl)c(=O)oc12 | 8.8 | · | i | 1.7 | -11 | -2 | 0.68
CC1CCC(NC(=O)C2c3ccccc3C(=O)N2Cc2cccs2)CC1 (centres undefined) | -3.5 | 1 | · | 0.1 | 5.5 | 7 | 0.67
COc1ccc(C(=O)N(C)Cc2ccon2)cc1OC1CCN(C(C)C)CC1 | -0.3 | -15 | i | -1.3 | 1.4 | -2 | 0.71
S=C(NCCc1ccccc1)N/N=C/c1cccc(Cl)c1Cl | -6.8 | 11 | i | 0.3 | · | 0 | ·
CCc1ccc(C(=O)NN(C(=O)c2ccc(CC)cc2)C(C)(C)C)cc1 | · | · | i | -4.5 | 0.3 | 6 | 0.66
COc1ccc2nc(C)cc(NCc3cccc(C(F)(F)F)c3)c2c1 | 6.6 | · | i | 1.9 | -18 | 21 | 0.57
COc1cccc(NC(=O)Cn2c3ccc(OC)cc3c3nc4n(c(=O)c32)CCS4)c1 | 2.6 | · | i | -2.9 | -222 | -8 | 0.71
O=C(NCCc1ccccc1)C1CC(=O)N(CCc2ccccc2)C1 (centres undefined) | 15 | -12 | i | -1.8 | 0.9 | 5 | 0.68
CC(=O)c1ccc(OC(=O)c2nc(-c3ccccc3)oc2C)cc1 | -1.6 | -7 | i | 0.6 | 6.5 | 5 | 0.68
Cc1occc1-c1nnc(SCC(=O)N2CCCC(C)C2)o1 (centres undefined) | · | · | i | -0.8 | 3.7 | 15 | 0.69
CCN1CCN(C(=O)C2CCN(S(=O)(=O)c3ccc4c(c3)NC(=O)C(C)S4)CC2)CC1 (centres undefined) | 9.6 | 3 | i | 3.4 | 2.8 | 0 | 0.67
O=c1oc2ccccc2nc1/C=C(\O)c1ccccc1 | 2.6 | 37 | i | -1.8 | 5.5 | 3 | 0.68
Cc1cc(Br)ccc1NC(=S)NCCc1ccccc1 | 3.6 | 3 | i | 2.8 | 0.7 | 0 | 0.67
COc1ccc([C@H]2CC(=O)C=C(c3cc(C)ccc3OC)C2)cc1 | 0.2 | 0 | i | 7.2 | 3.9 | -5 | ·
Cc1ccc2c(c1)-n1c(nc3ccccc3c1=O)C(Cc1ccc(O)cc1)NC2=O (centres undefined) | 4.3 | 3 | i | · | · | · | ·
Cc1cc(C)cc(OCC(=O)Nc2cccc(-c3nc4ncccc4o3)c2)c1 | 0.5 | -8 | i | 7.0 | 2.9 | 2 | 0.73
COC(=O)c1ccc(Oc2nc3ccccc3n3c(C)nnc23)cc1 | 2.2 | 0 | i | 6.7 | 0.2 | 2 | 0.67
CSc1oc(-c2cccs2)nc1S(=O)(=O)c1ccccc1 | 6.9 | -1 | i | 6.0 | -0.2 | 0 | 0.71
CC(=O)N(c1ccc(Cl)cc1)c1c[nH]c2ccccc12 | -1.5 | 52 | · | 4.9 | 2.6 | 7 | 0.61
CC(C)CNC(=O)C(=O)NNC(=O)c1ccco1 | 3.3 | -2 | i | -0.7 | 3.5 | 4 | 0.69
CCOc1ccc(NS(=O)(=O)c2ccc(NS(=O)(=O)c3ccc(SC)cc3)cc2)cc1 | -1.4 | -7 | · | -2.3 | 3.6 | -3 | 0.63
CCOc1nc(Nc2cc(Cl)ccc2OC)nc(OCC)n1 | -1.6 | 2 | · | -0.3 | 0.2 | 2 | 0.7
Cc1ccccc1NC(=O)Cn1cc(C(=O)C2CC2)c2ccccc21 | -1.4 | 4 | i | 0.8 | 4.2 | 22 | 0.72

Entries from the list above with an aryl thioether with sulfur outside any ring (three):
SMILES | LANA-H2A inh | ALR inh | FGF22 binding | HNF4A DNA FP | UCH37 inh | Beta2AR agonist | Ecoli growth
Cc1occc1-c1nnc(SCC(=O)N2CCCC(C)C2)o1 (centres undefined) | · | · | i | -0.8 | 3.7 | 15 | 0.69
CSc1oc(-c2cccs2)nc1S(=O)(=O)c1ccccc1 | 6.9 | -1 | i | 6.0 | -0.2 | 0 | 0.71
CCOc1ccc(NS(=O)(=O)c2ccc(NS(=O)(=O)c3ccc(SC)cc3)cc2)cc1 | -1.4 | -7 | · | -2.3 | 3.6 | -3 | 0.63

Continued:
SMILES | LANA-H2A inh | ALR inh | FGF22 binding | HNF4A DNA FP | UCH37 inh | Beta2AR agonist | Ecoli growth
COc1ccc(S(=O)(=O)CCC(=O)Nc2cc(C)ccc2OC)cc1 | 2.6 | -3 | i | 3.7 | 0.4 | 1 | 0.65
CN1CCN(c2cc(-c3ccccc3)nc3cc(-c4ccc(F)cc4)nn23)CC1 | -5.5 | -7 | · | -3.2 | -148 | 21 | 0.75
COc1ccc(NC(=O)c2c3c(nc4ccccc24)CCN(Cc2ccccc2)C3)c(OC)c1 | -7.6 | · | i | 2.1 | -2.5 | 4 | 0.64
COc1ccc(C)cc1NC(=O)c1ccc(CN2CCc3ccccc3C2)cc1 | 9.8 | 0 | i | 0.9 | · | 5 | ·
Cn1nc([N+](=O)[O-])nc1Oc1ccccc1 | · | · | · | 0.2 | 0.4 | 8 | 0.67
OC[C@@H]1CCCN1Cc1cn(-c2ccccc2)nc1-c1ccc2c(c1)OCO2 | 1.0 | 0 | i | -0.5 | 0.1 | -7 | 0.65
CS(=O)(=O)c1cccc(NC(=O)C2CC2)c1 | -1.8 | -5 | i | 1.0 | 4.5 | -7 | 0.66
CN1CC(c2ccccc2)C2(COc3ccccc3C2=O)C12C(=O)Nc1ccccc12 (centres undefined) | -1.1 | 0 | · | 0.1 | · | 8 | ·
O=C(/C=C/c1ccc([N+](=O)[O-])cc1)OCC(=O)N1CCOCC1 | -3.3 | -5 | i | 4.0 | 3.4 | 1 | 0.61
CN1CCN(C=Nc2nc3ccccc3nc2N2CCCC2)CC1 | 1.9 | -15 | i | -3.3 | -20 | -8 | 0.67
CCCn1cc(S(=O)(=O)c2ccc(F)cc2)c(=O)c2cc(OCC)ccc21 | 5.7 | -32 | i | 2.9 | -5.5 | 3 | 0.69
Cc1cccc(C(=O)Nc2ccccc2C(=O)OCc2c(C)noc2C)c1 | -3.0 | -7 | · | -0.1 | -0.2 | -7 | 0.71
Cc1cccn2c(=O)nc(SCC(=O)NCCc3ccccc3)nc12 | 2.0 | -4 | i | 2.1 | -9.9 | 2 | 0.69
CC(=O)Nc1nonc1NC(=O)CSc1ncn[nH]1 | -1.9 | -1 | · | 4.5 | -2.8 | 9 | 0.67
O=c1c2ccccc2nc(SCc2ccccc2Cl)n1Cc1ccccc1 | -4.2 | -3 | · | -2.6 | 2.7 | 1 | 0.69
Cc1c(Cl)cnc(NC(=O)COC(=O)c2cc3c(s2)CCC(C)C3)c1Cl (centres undefined) | 3.8 | -12 | i | 4.8 | 1.0 | 6 | 0.75
CC(Oc1ccc(Br)cc1)C(=O)N1CCN(c2ccccn2)CC1 (centres undefined) | 5.6 | -2 | i | -11 | -4.1 | -5 | 0.69
COCCNC(=O)/C(C#N)=C/c1c(N2CC(C)OC(C)C2)nc2ccccn2c1=O (centres undefined) | -2.0 | 1 | · | -2.3 | -1.9 | -15 | ·
COc1ccccc1C(=O)Nc1ccc2c(c1)nc(CN1CCCCC1)n2C | 1.0 | -6 | i | 5.1 | -3.2 | 33 | 0.72
CCP(=O)(c1cccc([N+](=O)[O-])c1)c1cccc([N+](=O)[O-])c1 | 0.6 | -7 | i | 2.6 | 4.7 | 0 | 0.66
